Vaccinia mCherry – inhibitors of vaccinia virus infection (mCherry reporter signal) | Vaccinia virus mCherry reporter infection, fluorescence; about a quarter of the inactives have no number | Potency, µM (top dose mostly 36.5 µM), for the others: top-dose activity change, negative = inhibition, hits mostly inhibitors | hit rate 0.63% among 310,000 | AID 720579; active = well fitted inhibition curve with a large enough effect; inconclusive = small, poorly fitted or top-dose-only effect; inactive = no such curve, though single readings can be large or run the other way; tested in A549 cells; also: nearly all actives have a fitted effect of over 35% in size; inactives centre near -10
VACV Venus inh – inhibitors of vaccinia virus (Venus reporter); Potency, µM (doses to about 36.5 µM), without a hit: top-dose activity change, negative = inhibition, actives largely listed as inhibitors; hit rate 0.46% among 330,000; AID 720580; Vaccinia virus Venus reporter expression, fluorescence; active means well fitted inhibition curve with a large enough effect; inconclusive means small, poorly fitted or top-dose-only effect; inactive means no such curve, though single readings can be large or run the other way; tested in A549 cells; also: nearly all actives have a fitted effect of over 30% in size; inactives centre near -10
Starred values were filed as active, the others as inactive; i = inactive; ? = inconclusive; . = not tested or not shown; & = joins results of further samples; [ ] = remark or other dose. % is scaled to controls: 0 for no effect and ±100 for the full control effect; potency is read from the fitted curve at half-maximal effect.

Order of values: Vaccinia mCherry, VACV Venus inh
1. COC(=O)Cc1cc(=O)[nH]c(/N=C(\N)Nc2ccccc2C)n1
  -6.1%, -13.5%
2. CN1CCN(c2ccc(Cl)cc2N)CC1
  -15.9%, -10.8%
3. CCN(C(=O)COc1ccc(C(=O)c2ccccc2)cc1)c1ccccc1
  -14.5%, -1.8%
4. C=CCN(CC=C)C(=O)CN1C(=O)NC(c2ccccc2)(c2ccccc2)C1=O
  -1.8%, -11.0%
5. Cc1ccc(C(=O)c2cn[nH]c2-c2cc(Cl)ccc2O)cc1
  -19.8%, -10.1%
6. Cc1ccccc1CNC(=O)c1ccc(-c2nc(CS(=O)(=O)c3ccccc3)c(C)o2)cc1
  ?, ?
7. Cc1nnc(C)c2c(C)n(-c3ccc4ncccc4c3)c(C)c12
  i, -7.3%
8. O=C(C[N+]1(CCO)CCOCC1)c1cccc2ccccc12
  -14.2%, -8.4%
9. O=C(Nc1ccnc(-c2cccnc2)n1)c1ccc(Cl)c(Cl)c1
  i, -2.7%
10. CC(C)(C)NC(=O)CN(C(=O)CS(=O)CC(=O)Nc1ccc(F)cc1)c1ccc(F)c(Cl)c1 (configuration not stated)
  i, -16.0%
11. COc1ccc(CCNC(=S)N2CCN(S(=O)(=O)c3cccc(F)c3)CC2)cc1
  i, -12.9%
12. COc1ccccc1CNC(=O)CN1C(=O)CSc2ccc(S(=O)(=O)N3CCCC3)cc21
  -8.4%, -15.1%&-10.3%
13. CC(C)(C)C(=O)c1no[n+]([O-])c1/C(=N/O)C(C)(C)C
  -29.2%, -22.9%
14. CC1=C(C(=O)Nc2cccnc2)C(c2ccccc2)n2nc(-c3ccc(O)cc3)nc2N1 (configuration not stated)
  5.1%, -10.8%
15. COc1ccc(/C=C/C(=O)c2ccc(O)cc2O)cc1
  20.0%, 31.2%[activator]
16. Cc1ccc([C@H]2C[C@H](n3cc(C4CC4)nn3)[C@@H](O)CN2CC2CCCCC2)cc1
  ?, ?
17. Cn1c(COc2ccccc2O)[n+](C)c2ccccc21
  i, -10.4%
18. Cc1cccc(NC(=O)c2ccccc2OCC(=O)N2CCOCC2)c1C
  -13.2%, -6.5%
19. COc1cccc(-n2c(CN3CCN(c4ccccc4)CC3)nc3ccc([N+](=O)[O-])cc3c2=O)c1
  -13.6%, 0.0%
20. COc1ccc(-c2nc(C)c(CCNC(=O)c3cccs3)s2)cc1OC
  ?, ?
21. CC(C)c1cc(N2CCN(C(=O)c3ccco3)CC2)n2c(nc3ccccc32)c1C#N
  -15.2%, -29.7%
22. COc1ccc(C(=O)c2oc3ccccc3c2NC(=O)COc2cccc(C)c2)cc1
  -3.5%, -3.1%
23. Cc1ccc(SCCNC(=O)c2cccc([N+](=O)[O-])c2C)cc1
  ., ?
24. Cc1cc(C)n2nc(CC(=O)NNC(=O)c3ccc(N(C)C)cc3)nc2n1
  -13.6%, -10.1%
25. Cc1ccc(C2c3[nH]c4ccccc4c3C[C@H]3C(=O)N(c4ccccc4C(=O)N4CCC(C(=O)O)CC4)C(=O)N23)cc1 (some centres not stated)
  -4.4%, 6.1%
26. Cc1ccc2oc(-c3cc(NC(=O)CC(C)C)ccc3Cl)nc2c1
  -7.8%, -20.3%
27. CC(C)c1ccc(NC2CCCN(C(=O)CCN3CCCCC3=O)C2)cc1 (configuration not stated)
  i, -17.0%
28. CCc1nnc(NC(=O)c2nc(S(C)(=O)=O)ncc2Cl)s1
  0.6%, 7.7%
29. Cn1c(SCC(=O)Nc2ccc(Br)cc2)nc(O)cc1=O
  -0.1%, -3.4%
30. COc1ccc(NC(=O)Cn2nc3n(c2=S)CCC3)cc1
  ., -5.2%
31. O=C(CSc1nnc(COc2ccccc2)o1)NC1CC2CCC1C2 (configuration not stated)
  i, -16.1%
32. CCOc1nc(NCCO)nc(NCCC2=CCCCC2)n1
  -19.4%, -7.3%
33. CCOC(=O)c1[nH]c(C)c(C(=O)NC2CCCCC2)c1C
  3.7%, 0.4%
34. CC(=O)Nc1cccc(C(=O)OCC(=O)NCc2cc(C)c(O)c(C)c2)c1
  i, -12.8%
35. Cc1ccc2c(c1)N(CC(=O)NCCCN1CCOCC1)C(=O)C(C(C)C)O2 (configuration not stated)
  -25.5%, -16.3%
36. O=C(NCCc1cccc(Cl)c1)c1cccnc1
  -17.7%, -5.7%
37. COc1ccc(C(CNC(=O)C(=O)NC2CCCCC2)N2CCN(C)CC2)cc1 (configuration not stated)
  -19.1%, -7.8%
38. CCCCCc1c(Cc2ccccc2)ncn1CCc1ccccc1OC
  ?, 1.41µM*
39. Cc1ccc(C(=O)OCC(=O)N2CCC(C)CC2)cc1S(=O)(=O)N1CCOCC1
  i, -4.5%
40. Cn1c(=O)c2c(nc(NCCOc3ccc(C(C)(C)C)cc3)n2C)n(C)c1=O
  i, -8.6%
41. CN1CCc2nc3sc(C(=O)c4ccc(F)cc4)c(N)c3cc2C1
  1.2%, 35.3%[activator]
42. Cc1ccccc1NS(=O)(=O)c1cccc2nsnc12
  -15.9%, -3.3%
43. COc1ccc(Cl)cc1C(=O)NNC(=O)c1cccc(S(=O)(=O)N(C)C)c1
  -14.7%, -3.6%
44. COc1ccc(NC(=O)CSc2nnc(NC(=O)Nc3ccc(OC)cc3)s2)cc1
  -0.4%[7.34 µM], -3.2%[7.34 µM]
45. Cc1ccc(S(=O)(=O)NNC(=S)Nc2c(Cl)cccc2Cl)cc1
  -1.0%[7.34 µM], 7.9%[7.34 µM]
46. CN1CCN2c3ccccc3CC(C#N)(C#N)C2C1 (configuration not stated)
  i, -10.2%
47. Cc1c(Cl)cccc1NC(=O)CSc1nc(=O)n(CCCN2CCOCC2)c2c1CCC2
  i, -13.0%
48. c1ccc(-c2csc(NNC3=NCCCCC3)n2)cc1
  -21.7%, -18.8%
49. COc1cccc(C(=O)c2cn(CC(=O)Nc3cc(Cl)c(OC)cc3OC)c3nc(C)ccc3c2=O)c1
  ?, ?
50. CCC(=O)N1CCc2cc(CNS(=O)(=O)c3ccc(CC(C)C)cc3)ccc21
  -8.9%, -14.0%
51. Cc1cccc(OCC(=O)NCc2ccc3c(c2)CCN3C(=O)c2ccccc2)c1
  -18.2%, -8.5%
52. O=C(CSc1ccc2c(c1)OCCO2)Nc1ccc2c(c1)OCO2
  ., -14.0%
53. O=C(CS(=O)(=O)c1ccc(Cl)cc1)Nc1nccs1
  i, -11.7%
54. O=C(Nc1ccc(N2CCOCC2)c(Cl)c1)c1ccc(-n2cnnc2)cc1Cl
  i, -11.5%
55. CCOC(=O)CN(C#N)c1nc(N(C)C)nc(N(C)C)n1
  -7.3%, -12.2%
56. O=S(=O)(/N=C(/c1ccccc1)N1CCOCC1)c1ccc(F)cc1
  -4.5%, -11.3%
57. Cc1ccc(C(=O)C(OC(=O)c2cnccn2)c2ccccc2)cc1C (configuration not stated)
  i, 0.9%
58. CC(C)(C)OC(=O)C[C@@H]1C/C=C\C[C@@H](CC(=O)N(CCO)Cc2ccccc2)C(=O)NC[C@H](c2ccccc2)OC1=O
  i, ?
59. Cc1nnc2n1CCCCC2
  -14.1%, -2.1%
60. COC1=CC(=O)c2ccccc2C1=O
  ?, ?

More results:
Order of values: Vaccinia mCherry, VACV Venus inh
61. Cc1[nH]nc2c1C(c1cccc(O)c1)C1=C(CC(C)(C)CC1=O)N2 (configuration not stated)
  -9.2%, 0.9%
62. COC(=O)C1=C(c2ccc(OCc3ccccc3)cc2)C[C@@H]2CC[C@H]1N2C
  -10.5%, -20.8%
63. O=S(=O)(NCCc1ccccn1)c1cccs1
  -11.2%[1.46 µM], -4.6%
64. CC(C)CNS(=O)(=O)c1cc(C(=O)OCC(=O)N2CCOCC2)c(Cl)cc1Cl
  -12.5%, 10.0%
65. Cc1ccc(Cl)cc1Nc1nn2c(=O)c3ccc(C(=O)N4CCCC(C)C4)cc3nc2s1 (configuration not stated)
  -18.0%, ?
66. CSc1nc(N2CCN(C)CC2)c2ccccc2n1
  -15.6%, -6.9%
67. Cc1ccc(CN=Cc2[nH]c3ccc(Br)c(Cl)c3c2O)cc1
  -13.9%, 16.6%
68. CCN1C(=O)C(CC(=O)Nc2ccc(C)cc2C)Nc2cc(S(=O)(=O)N(C)C)ccc21 (configuration not stated)
  -15.1%, -8.7%
69. Cc1cccn2c(=O)c(C=O)c(N3CCCCC3)nc12
  -7.3%, -15.6%
70. COc1cc(C2C(C(=O)Nc3ccccc3)=C(C)Nc3nnnn32)cc(OC)c1OC (configuration not stated)
  -16.8%, -9.4%
71. COc1cccc(C2N(c3ccccc3)CCN2c2ccccc2)c1OC
  3.9%, 3.5%
72. CC(NC(=O)COC(=O)c1ccc([N+](=O)[O-])s1)c1ccccc1 (configuration not stated)
  -11.7%, -12.2%
73. CCC(OC(=O)c1cccs1)C(=O)NCc1ccc2c(c1)OCO2 (configuration not stated)
  -4.0%, -4.5%
74. O=C(NC1CCCCC1)C1c2ccccc2OCC(=O)N1Cc1ccccn1 (configuration not stated)
  8.5%, 3.4%
75. C#CCOCCOCCOCCNc1nc(N2CCN(C(=O)C([C@@H](C)CC)n3cc(C(N)Cc4ccc(O)cc4)nn3)CC2)nc(N2CCN(C(=O)[C@H](CCC(=O)O)n3cc(C(N)CO)nn3)CC2)n1 (some centres not stated)
  i, 0.1%
76. COc1ccc(C(C)=O)c(Oc2cc(NN3CCCCC3)c([N+](=O)[O-])cc2[N+](=O)[O-])c1
  ?, 3.16µM*
77. O=c1oc(CCCO)cc2ccc(C#Cc3ccsc3)cc12
  ?, ?
78. CCOC(=O)N1CCC(NC(=O)C2CCCN(Cc3nc(-c4ccc(CC)cc4)oc3C)C2)CC1 (configuration not stated)
  -24.4%, -29.4%
79. Cc1nn(Cc2ccccc2)c(C)c1C(=O)O
  -1.6%, -7.0%
80. O=C1N(c2ccccc2)C[C@@H]2C[C@@H](c3cccc4c3OCO4)N3CCC[C@@]123
  i, 0.2%

Next section (2 carried over from the part before).
Order of values: Vaccinia mCherry, VACV Venus inh
79. Cc1nn(Cc2ccccc2)c(C)c1C(=O)O
  -1.6%, -7.0%
80. O=C1N(c2ccccc2)C[C@@H]2C[C@@H](c3cccc4c3OCO4)N3CCC[C@@]123
  i, 0.2%
81. CN(CC(=O)Nc1ccc(F)cc1)C(=O)C1CC(=O)N(Cc2ccccc2)C1 (configuration not stated)
  i, -7.9%
82. Cc1nc(N2CCN(Cc3ccc4c(c3)OCO4)CC2)c2cc(-c3ccccc3)sc2n1
  ?, -16.5%
83. COc1ccc(S(=O)(=O)NNC(=O)C23CC4CC(CC(C4)C2)C3)cc1[N+](=O)[O-]
  -0.6%, -11.3%
84. C[C@H](CO)N1C[C@H](C)[C@@H](CN(C)C(=O)Nc2ccc3c(c2)OCO3)Oc2ccc(NC(=O)Nc3ccc4c(c3)OCO4)cc2C1=O
  -27.0%, -9.6%
85. CCOc1ccc(NC(=O)C2CCCN2S(=O)(=O)c2ccc3c(c2)C(C)(C)C(=O)N3C)cc1 (configuration not stated)
  -29.1%, -14.1%
86. Cc1cnc(CNc2ncnc3ccc(-c4cccc(C#N)c4)cc23)cn1
  13.0%, 17.0%
87. NS(=O)(=O)c1ccc(NN=C2CCCCC2)c([N+](=O)[O-])c1
  -5.8%, -8.9%
88. CC(C)(C)n1c(O)c2n(c1=O)Cc1ccccc1N=C2c1ccccc1
  i, 1.1%
89. CCOc1cc(N2CCOCC2)c(OCC)cc1NC(=O)COC(=O)c1ccccc1C
  i, -6.4%
90. O=C(CN1CCN(S(=O)(=O)c2ccc(Cl)c(Cl)c2)CC1)N1CCCC1
  -25.7%, -18.1%
91. Cn1cnc(S(=O)(=O)NCc2ccccc2)c1
  -13.7%, -5.2%
92. COc1ccccc1CCn1c(N)c(C#N)c2nc3ccccc3nc21
  i, -6.2%
93. COC(=O)c1sc(N2C(=O)C(=O)/C(=C(/O)c3ccc(C)cc3)C2c2ccco2)nc1C (configuration not stated)
  i, -0.4%
94. Cc1ccc(C(=O)NC(=S)NNC(=O)CCN2CCOCC2)cc1
  -5.3%, -16.8%
95. COc1cccc(-c2nn(C)c3sc(C(=O)NCCCN(C)Cc4ccccc4)cc23)c1
  i, ?
96. CCC1=Nc2cc(C(=O)NCc3cccnc3)ccc2Sc2ccc(C)cc21
  ?, ?
97. Cc1cc(Cl)c(S(=O)(=O)N2CCN(c3ccc(F)cc3)CC2)cc1OCC(N)=O
  -6.7%, -27.5%
98. CC(=O)c1sc(NC(=O)c2ccco2)nc1-c1ccccc1
  ?, -16.8%
99. CCC1CN(CC(=O)NCc2n[nH]c3c2CCCCC3)Cc2cc(OC)ccc2O1 (configuration not stated)
  -9.3%, -8.8%
100. O=C(CSc1ncnc2c1oc1ccccc12)NCc1ccc(F)cc1
  -13.4%, ?
101. Cc1oc(-c2cccc(Cl)c2)nc1CS(=O)(=O)CC(=O)NCc1ccccc1Cl
  -1.6%, -9.2%
102. FC(F)(F)c1cnc(-n2cc[nH]c2=S)c(Cl)c1
  ., -14.7%
103. CCNC(=S)Nc1ccc2c(c1)c(=O)n(C)n2CC=C(C)C
  i, -5.9%
104. NC(Cc1ccc(F)cc1)c1csc(Nc2ccccn2)n1 (configuration not stated)
  ?, ?
105. CN(Cc1ccccc1)C(=O)[C@@H]1CCCN1C(=O)[C@@H]1CCCN1C(=O)c1cccs1
  1.9%, -4.8%
106. Cc1ccc(S(=O)(=O)N2CCC(C)CC2)cc1[N+](=O)[O-]
  -10.2%, -17.2%
107. CC(=O)OCC=C1CCC2C3CC(C)C4=CC(=O)CCC4(C)C3C(O)CC12C (configuration not stated)
  -0.6%, -12.1%
108. Cc1ncc(CO)c(CO)c1O
  -0.3%, -9.7%
109. CCc1noc(C)c1C(=O)N1CCCSC1=Nc1ccccc1OC
  -20.3%, -9.5%
110. O=C(NC1CCCCC1)c1ccc2c(c1)OCCO2
  -18.8%, -9.0%

Screening results as filed in PubChem.
